TRPML1 ag = agonists of human TRPML1 channel | hit rate 0.12% among 410,000 | AID 624414 | TRPML1-expressing cells, Ca2+ dye fluorescence, FDSS; host cell line not named in the record; reference of the full effect not given here | activation, % (test concentration not listed); in the data active = activation above about 50%; inconclusive = about 30% to 50%; inactive = below about 30%; also: 0% is about no effect; the text of the record puts the active cut at 80%
Target sequence (Q9GZU1 whole entry, looked up): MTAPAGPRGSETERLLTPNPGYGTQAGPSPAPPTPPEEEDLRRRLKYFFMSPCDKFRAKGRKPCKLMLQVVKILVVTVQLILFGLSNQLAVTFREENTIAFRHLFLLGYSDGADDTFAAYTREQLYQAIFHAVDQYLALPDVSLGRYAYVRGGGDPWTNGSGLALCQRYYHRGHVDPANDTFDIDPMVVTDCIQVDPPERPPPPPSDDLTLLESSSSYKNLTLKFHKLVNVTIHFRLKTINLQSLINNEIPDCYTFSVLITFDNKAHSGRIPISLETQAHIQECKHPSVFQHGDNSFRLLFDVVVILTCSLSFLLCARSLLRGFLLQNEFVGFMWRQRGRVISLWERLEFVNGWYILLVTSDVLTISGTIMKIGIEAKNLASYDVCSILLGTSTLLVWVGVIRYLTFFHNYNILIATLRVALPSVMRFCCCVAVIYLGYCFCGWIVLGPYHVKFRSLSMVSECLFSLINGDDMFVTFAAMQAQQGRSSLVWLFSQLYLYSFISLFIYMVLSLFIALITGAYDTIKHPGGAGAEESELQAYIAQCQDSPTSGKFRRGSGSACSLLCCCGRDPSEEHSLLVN
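In this qHTS format, compounds were pin-transferred onto Ca8-dye-loaded TRPML1-DL cells induced with Tet overnight, and intracellular Ca2+ fluorescence was recorded kinetically for 110 s after a 10 s baseline. A subsequent 4uM final 54-4 (EC80) addition followed by a second 110 s read served as the antagonist phase.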
TRPML1 inh = inhibitors of human TRPML1 channel. Q9GZU1. TRPML1-inducible cells, Ca2+ dye fluorescence, FDSS; active compounds read low; inhibition of EC80 agonist-evoked calcium signal. activity change, negative = inhibition, % (no concentration beside the values). hit rate 0.02% among 390,000; in the data active means activity change below about -50%; inconclusive means about -30% to -50%; inactive means above about -30%;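 also: stimulus is agonist 54-4 at its EC80 concentration; % is scaled to controls: 0 for no effect and ±100 for the full control effect; compound concentration not given in the record; the text of the record puts the active cut at -80%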
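Calcium fluorescence in TRPML1-DL cells induced overnight with Tet: a 110 s read after compound pin addition, then a 110 s antagonist read after challenge with 54-4 at 4 uM final (EC80).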
CtBP-E1A blk = inhibitors of CtBP/E1A interaction; activity change, % (test concentration not listed); hit rate 0.49% among 340,000; AlphaScreen GST-E1A/His-CtBP binding, 1536-well; active compounds read low; control for the full effect not named in the record; in the data active means activity change below about -65%; inconclusive means about -30% to -65%; inactive means above about -30%; also: % is scaled to controls: 0 for no effect and ±100 for the full control effect
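In 5 uL wells, 23 nL compound meets equimolar GST-E1A and His-CtBP (5X stock 125 nM each) for 2 h, 37 °C. Beads (5X, 50 ug/mL) then 1 h, 37 °C, dark.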
PINK1 expr mod = PINK1 expression modulation | AID 624263 | Potency, µM (doses to about 76.6 µM), for inactives: at the highest dose activation (PINK1 increase), hits mostly activators | hit rate 0.2% among 410,000 | PINK1 immunofluorescence, high-content cytometry, 24 h; active = well fitted activation curve with a large enough effect; inconclusive = small, poorly fitted or top-dose-only effect; inactive = flat fitted curve, though single readings scatter; cell line not stated here;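 also: potency is read from the fitted curve at half-maximal effect; % of control where 0% means no effect; nearly all actives have a fitted effect of over 65% in size; a mitochondrial uncoupler was the plate control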
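Readout is PINK1 immunofluorescence, quantified alongside mitochondrial, cell and nuclear markers by laser-scanning microplate cytometry. Cells from a stable line were exposed to compound titrations (5 concentrations) for 24 hours, with CCCP controls.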
Six1-Eya2 blk = blocks human Six1 binding to Eya2; activity change, % (test concentration not listed); AlphaScreen GST-Six1/His-Eya2 binding, biochemical; active compounds read low; control for the full effect not named in the record; hit rate 0.56% among 360,000; in the data active = activity change below about -65%; inconclusive = about -30% to -65%; inactive = above about -30%; also: % is scaled to controls: 0 for no effect and ±100 for the full control effect
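GST-Six1 + His-Eya2 (5X stock: 250/500 nM); Tris pH 8.0, 300 mM NaCl, 0.05% BSA, 0.02% Tween 20; GSH donor/Ni acceptor beads; 1 h 37 °C dark; AlphaScreen readout.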
D2 ag = agonists of human D2 dopamine receptor (beta-arrestin); DiscoveRx PathHunter D2 beta-arrestin, luminescence, 90 min; 100% = 57 uM dopamine signal; hit rate 0.084% among 360,000; P14416; activation, % (test concentration not listed); in the data active = activation above about 40%; inconclusive = about 15% to 40%; inactive = below about 15%; also: compound concentration not given in the record; the text of the record calls up to 30% inactive
Target sequence (P14416 whole entry, looked up): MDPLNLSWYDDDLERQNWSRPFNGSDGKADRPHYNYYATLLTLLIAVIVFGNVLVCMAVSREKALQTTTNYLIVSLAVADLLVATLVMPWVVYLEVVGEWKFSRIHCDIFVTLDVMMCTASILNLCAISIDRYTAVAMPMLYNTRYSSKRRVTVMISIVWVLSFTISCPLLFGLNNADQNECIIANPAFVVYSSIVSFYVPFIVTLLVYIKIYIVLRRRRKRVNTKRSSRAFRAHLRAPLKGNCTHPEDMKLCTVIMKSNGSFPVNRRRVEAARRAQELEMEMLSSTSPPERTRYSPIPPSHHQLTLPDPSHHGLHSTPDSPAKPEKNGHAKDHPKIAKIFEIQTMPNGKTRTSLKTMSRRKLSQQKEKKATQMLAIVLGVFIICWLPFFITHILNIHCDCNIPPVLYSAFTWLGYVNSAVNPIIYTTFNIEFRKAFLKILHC
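DiscoveRx PathHunter D2 beta-arrestin cells (2,100/well) attached overnight, then compound-stimulated 90 min at 37 C in HBSS/10 mM HEPES/0.1% Tween-20 buffer; beta-galactosidase complementation read by luminescence after 1 h at ambient temperature. Dopamine 57 uM final (EC100) as control.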
* hit, by the source's call; ? = inconclusive; . = no result given; & = joins results of further samples; [ ] = dose if it differs, or a comment.

Results follow in this order: CtBP-E1A blk, Six1-Eya2 blk, PINK1 expr mod, TRPML1 inh, D2 ag, TRPML1 ag
Cc1ccc2c(NCc3ccco3)nc(NC(C)C)nc2c1
→ -14.8, -10.2, ?, ., ., -0.9
O=C(NCc1cccs1)c1cc(-c2ccccc2)nn1CC1CC(c2cccnc2)=NO1 (stereo not given)
→ 3.5, 2.5, -0.6%, 24.5, 3.8, -1.1
CSc1ncc(C(=O)Nc2cccc(Cl)c2C)c(C)n1
→ 6.4, -6.2, 4.9%, -0.1, 1.4, 0.2
O=C1c2ccccc2C(=O)N1CCCCn1c(=O)oc2ccccc21
→ 1.4, 2.7, 0.8%, 4.0, -4.0, -0.4
O=C(O)CCC(=O)N1N=C(c2ccccc2)CC1c1ccc2c(c1)OCO2 (stereo not given)
→ -9.5, 7.7, -1.2%, -4.0, -7.3, -0.1
CC(=O)Nc1ccc(S(=O)(=O)NCCC(=O)OCc2csc(CC(=O)Nc3ccccc3C)n2)cc1
→ -2.3, 5.5, 2.2%, 1.2, 1.5, 0.1
CC(=O)Nc1nc(C)c(-c2csc(Nc3ccc(S(N)(=O)=O)cc3)n2)s1
→ -20.2, -25.6, 12.3%, -16.6, -0.4, 0.4
CCCS(=O)(=O)N1CCN(C(=O)COc2ccccc2)CC1
→ 0.9, 2.6, 1.0%[38.3 µM], 4.6, -1.9, -0.1
CCOC(=O)C1=CCN(S(=O)(=O)c2ccc(C)cc2)C1c1ccc(Cl)cc1 (stereo not given)
→ 12.1, 4.4, 1.3%, 3.6, -3.1, 2.5
CN1CCN(C(=O)C2=C[C@@H](c3ccc(Br)cc3)C[C@@H](OCc3ccc(CO)cc3)O2)CC1
→ -0.2, -5.8, 1.4%, 2.1, -1.7, 0.2
COc1ccc(N(C)S(=O)(=O)c2ccc3c(c2)CCC(=O)N3)cc1
→ -17.6, -3.6, -3.9%[38.3 µM], 31.9, -2.8, 0.7
COc1ccc(-c2csc(NC(=O)c3ccc(OCC(=O)N4CCOCC4)c(OC)c3)n2)cc1
→ -7.2, -16.4, 5.4%, 0.3, 10.1, -0.6
Cc1cc(C)c(C(=O)CC(=O)c2cccnc2)c(C)c1
→ -12.5, -6.6, 1.1%, 5.3, -0.8, -1.0
Cc1cc(NC(=O)CCS(=O)(=O)c2ccc3c(c2)NC(=O)C(C)S3)ccc1Br (stereo not given)
→ ., -7.2, 0.7%, -3.9, 4.1, 0.7
COc1ccc2o/c(=N/NC(=O)c3cccs3)c(C(N)=O)cc2c1
→ -83.0*, ?, 6.5%, -0.9, -2.2, 2.8

(next part)
Results follow in this order: CtBP-E1A blk, Six1-Eya2 blk, PINK1 expr mod, TRPML1 inh, D2 ag, TRPML1 ag
CS(=O)(=O)N1CCc2cc(C(=O)O)ccc21
→ 6.2, 1.7, 0.7%, -3.8, -1.3, -0.7
COc1ccc(NC(=O)N(C)C[C@H]2Oc3ccc(NS(=O)(=O)c4cccs4)cc3C(=O)N([C@H](C)CO)C[C@@H]2C)cc1
→ 0.5, -2.0, -0.8%, -14.7, -3.3, -0.6
Cc1ccc(OCc2nnc(N)s2)cc1
→ -1.5, 4.2, 1.3%, -4.3, -1.8, 0.0
Cc1nc2ccccc2c(=O)n1-c1ccc(NS(=O)(=O)c2ccc(F)cc2)cc1
→ 4.0, 0.6, 4.3%, 16.6, 6.3, 0.4
CCCCC(O)(c1ccccc1)C(CN1CCOCC1)c1ccccc1 (stereo not given)
→ 2.5, -0.4, 17.7%, -1.0, 1.4, 1.2
NC(=O)c1ccc(NC(=O)CN2CCN(c3ccc(Cl)cc3)CC2)cc1
→ -10.6, 0.4, 10.0%, -6.2, -4.1, 0.3
CC(C)c1ccccc1NC(=S)N1CCN(Cc2ccc3c(c2)OCO3)CC1
→ 1.1, 11.4, -1.7%, 8.5, -4.2, 0.8
Cc1ccccc1NCN1C(=O)C2C3C=CC(C3)C2C1=O (stereo not given)
→ 3.7, 4.0, 0.9%, 12.4, -0.5, -1.0
CCOC(=O)c1c(S(=O)(=O)N2CCCC(C(=O)NCc3ccccc3OC)C2)c(C)n(C)c1C (stereo not given)
→ ., ., 2.7%, -14.5, ., -1.1
CC(C)c1ccc(NC2CCCN(C(=O)c3ccc4nccnc4c3)C2)cc1 (stereo not given)
→ -9.2, 0.7, -0.7%, 8.2, 0.6, -0.1
O=C(NCc1ccc(N2CCCC2=O)cc1)c1cccc(Cl)c1
→ -0.9, 5.0, 1.3%, 16.1, -3.1, 0.4
O=C(Nc1cc(Cl)ccc1O)c1cc(-c2ccc3c(c2)OCO3)on1
→ ., ., 1.7%, 27.7, ., -0.4
COc1cccc2sc3ccc(NCc4ccc5c(c4)OCO5)cc3c(=O)c12
→ -27.0, -11.5, 0.0%, 2.1, 13.6, 5.6
COc1ccccc1NC(=O)c1sc2ncn(Cc3ccc(C)cc3)c(=O)c2c1C
→ 2.6, -0.2, 6.9%[38.3 µM], 4.4, 0.1, 1.2
Cc1ccc(-c2nnc(Nc3cccc(C(F)(F)F)c3)c3ccccc23)cc1S(=O)(=O)N1CCOCC1
→ ., ., 0.9%, -0.7, ., 1.4

Carrying on:
Results follow in this order: CtBP-E1A blk, Six1-Eya2 blk, PINK1 expr mod, TRPML1 inh, D2 ag, TRPML1 ag
COC(=O)/C(=C\Nc1ccc(Cl)cc1Cl)NC(=O)c1ccc(OC)cc1
→ -10.6, -15.0, 3.7%, 17.2, -2.5, 1.0
COC(=O)[C@]12CCCCC=C1N(Cc1ccc(Cl)cc1Cl)C(=O)[C@H](CC(=O)NCCc1ccccc1OC)C2
→ -6.3, -4.5, 1.4%, ., ., 0.2
O=C(COc1ccccc1Cl)NCC1(N2CCOCC2)CCCCC1
→ ., ., 1.2%, -22.8, ., 4.9
Cc1ccccc1-c1nnc(SCCC(=O)N2CCOCC2)o1
→ 14.2, -2.5, 1.5%, 0.9, -5.5, 0.3
COc1ccc(S(=O)(=O)NC2(C(F)(F)F)NC(=O)N(CCc3ccc(OC)c(OC)c3)C2=O)cc1 (stereo not given)
→ 10.9, 5.0, 1.7%&1.1%, -17.0&3.0, -2.9, -0.5&-0.1
Cn1c(C(=O)NCC2CCCO2)cc2c(=O)[nH]c3ccccc3c21 (stereo not given)
→ -1.7, -3.7, -1.7%, -1.5, 5.8, -0.4
O=C(Nc1cccc(Cl)c1)N(Cc1nc2ccccc2c(=O)[nH]1)Cc1cccs1
→ 7.8, 4.3, ?, -10.7, -3.1, 0.2
COc1ccc(Nc2nccc(-c3ccc(C#N)cc3)n2)cc1
→ 0.0, -10.5, 11.2%, -3.8, 0.2, 1.4
O=C(/C=C\c1ccccc1)NC1CC(=O)N(c2ccccc2)C1 (stereo not given)
→ ., ., 1.4%, 8.7, ., -0.8
CC(C)Cn1c(SCC(=O)c2ccc(Cl)s2)nnc1-c1ccco1
→ -3.5, -3.2, -1.5%, 35.4, -2.5, 1.4
CC(=O)c1c(C)[nH]c(C(=O)Nc2cccc(S(=O)(=O)N(C)c3ccccc3)c2)c1C
→ ?, ?, -1.4%, -4.9, 2.3, 0.2
CCCCN(C)CCCNC(=O)CS(=O)Cc1nc(-c2ccc(OC)c(OC)c2)oc1C (stereo not given)
→ -0.2, 0.6, -0.9%, -8.0, -4.8, -1.2
O=S(=O)(c1ccccc1)N1CCN=C1SCc1cccc(Cl)c1
→ 13.1, 11.8, 0.8%, 66.2, 2.3, 2.8
CN1c2ccsc2C(O)=C(C(=S)Nc2ccc(F)c(Cl)c2)S1(=O)=O
→ -5.9, -10.0, ?, 10.0, -0.1, -0.5
N#Cc1nc(-c2ccccc2)oc1NCC1CCCO1 (stereo not given)
→ -8.7, -0.3, 0.4%, 0.4, -0.4, 1.4

The list goes on:
Results follow in this order: CtBP-E1A blk, Six1-Eya2 blk, PINK1 expr mod, TRPML1 inh, D2 ag, TRPML1 ag
O=C(Cc1ccccc1)Nn1c(-c2ccccc2F)nc2ccccc2c1=O
→ 1.3, -0.4, -0.7%, 0.2, -2.2, -0.5
Cc1ccc(OC(=O)c2ccccc2)cc1C
→ 37.3, 27.2, 11.6%, 6.1, 3.0, -0.3
CCN(CC(=O)Nc1cc(Cl)ccc1C)C(=O)C1CC1
→ 0.3, 9.3, -0.7%, 4.9, -0.8, 0.0
CC1=CCC[C@H]2[C@H](C1)C(=O)C[C@@H](C)[C@]2(C)CC/C(=C/CO)CO
→ 7.6, 14.3, -1.1%, ., -8.2, .
O=C(CSCc1ccc(Cl)cc1)Nc1ccc(O)cc1C(=O)O
→ -1.0, 1.1, 1.3%, 65.2, 5.8, 2.2
O=C(c1cc(COc2ccc(F)c(F)c2)on1)N1CCN(C2CCCCC2)C(=O)C1
→ ., 2.7, 1.0%, 16.6, 10.0, 0.2
Cc1cccc(-c2nc(CN3CCCC(C(=O)NC4CCC(C)CC4)C3)c(C)o2)c1 (stereo not given)
→ 1.0, -0.3, 8.5%, 6.0, -4.4, 0.3
CCOC(=O)/C=C1\SCC(=O)N1CC(=O)NC(C)c1ccc(F)cc1 (stereo not given)
→ 2.7, 0.0, 15.5%, 4.6, 1.5, 1.7
O=C(CSc1ncc(-c2ccccc2)n1C1CCCC1)N1CCc2ccccc21
→ -2.1, -11.0, ?, 18.6, -2.5, 2.3
C(=C\c1ccccc1)/CSc1nnc(-c2ccccc2)n1Cc1ccco1
→ -2.8, -7.7, 0.8%[38.3 µM], 11.7, 1.4, 1.7
CCCCN1CC(N2CCN(CCO)CC2)CS1(=O)=O (stereo not given)
→ -15.4, 13.4, -0.4%, ., -4.8, -0.2
CN(C)C(CNc1nnnn1-c1ccccc1)c1ccco1 (stereo not given)
→ 2.3, 1.4, ., 8.9, -4.5, 0.1
CCN(c1ccccc1)c1ncnc2c1cnn2-c1ccccc1
→ 13.9, 2.1, 3.8%, 1.6, 9.6, 0.2
O=C(c1cccs1)N1CCC(c2nc(-c3ccc(S(=O)(=O)N4CCOCC4)cc3)no2)CC1
→ -3.0, 1.8, 0.4%[38.3 µM], 19.1, -0.5, 2.9
COc1cc(-c2nc3n(c(=O)c2C#N)CCS3)cc(OC)c1OC
→ 6.6, -5.8, 1.8%, 7.5, 2.4, -0.4

Single records, as listed above. Order of values: CtBP-E1A blk, Six1-Eya2 blk, PINK1 expr mod, TRPML1 inh, D2 ag, TRPML1 ag
`COc1cccc2sc3ccc(NCc4ccc5c(c4)OCO5)cc3c(=O)c12` as listed: -27.0, -11.5, 0.0%, 2.1, 13.6, 5.6
`CCCS(=O)(=O)N1CCN(C(=O)COc2ccccc2)CC1` as listed: 0.9, 2.6, 1.0%[38.3 µM], 4.6, -1.9, -0.1
`O=C(/C=C\c1ccccc1)NC1CC(=O)N(c2ccccc2)C1` (stereo not given) as listed: ., ., 1.4%, 8.7, ., -0.8

Compounds were not picked by outcome; about 1% have a hit in one of these screens.
